Screening results as filed in PubChem.
Mtb MbtI inh = inhibitors of Mycobacterium tuberculosis siderophore enzyme MbtI; purified MbtI enzyme, fluorescence intensity read-out; inhibition, %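 (about 17 µg/mL by stock and volumes)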; 100,000 compounds, 0.89% hits;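 active means above 50% in both replicates, above 80% if mildly self-fluorescent; inactive means the rest, strongly fluorescent compounds included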;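 further: 0% = mean of negative and 100% = mean of positive controls; one replicate is shown; some compounds called inactive have numbers as strong as hits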
Target sequence (P9WFX0 whole entry, looked up): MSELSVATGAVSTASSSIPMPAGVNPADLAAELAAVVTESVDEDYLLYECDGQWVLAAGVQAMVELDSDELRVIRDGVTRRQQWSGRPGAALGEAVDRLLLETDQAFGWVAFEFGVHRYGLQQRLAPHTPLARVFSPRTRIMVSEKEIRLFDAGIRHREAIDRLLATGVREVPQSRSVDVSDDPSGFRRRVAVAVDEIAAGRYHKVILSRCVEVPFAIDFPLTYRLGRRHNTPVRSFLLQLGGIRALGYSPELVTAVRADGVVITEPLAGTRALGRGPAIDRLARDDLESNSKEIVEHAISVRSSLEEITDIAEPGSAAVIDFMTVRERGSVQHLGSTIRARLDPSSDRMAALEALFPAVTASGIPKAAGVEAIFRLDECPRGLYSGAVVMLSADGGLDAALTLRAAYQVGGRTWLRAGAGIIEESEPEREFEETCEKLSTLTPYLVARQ
Mtb MenB inh = blocks the Mycobacterium tuberculosis MenB enzyme; P9WNP5; MenB enzyme assay, absorbance read-out; some hits fall short of the stated cut; inhibition, %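 (about 12 µg/mL by stock and volumes)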; 100,000 compounds, 0.43% hits; AID 540299;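 active means mean of two replicates above 30%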;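 further: 0% = no compound and 100% = wells with inactive enzyme; the first replicate is given; strong numbers were not always called active; inactives centre near -10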
Target sequence (P9WNP5 whole entry, looked up): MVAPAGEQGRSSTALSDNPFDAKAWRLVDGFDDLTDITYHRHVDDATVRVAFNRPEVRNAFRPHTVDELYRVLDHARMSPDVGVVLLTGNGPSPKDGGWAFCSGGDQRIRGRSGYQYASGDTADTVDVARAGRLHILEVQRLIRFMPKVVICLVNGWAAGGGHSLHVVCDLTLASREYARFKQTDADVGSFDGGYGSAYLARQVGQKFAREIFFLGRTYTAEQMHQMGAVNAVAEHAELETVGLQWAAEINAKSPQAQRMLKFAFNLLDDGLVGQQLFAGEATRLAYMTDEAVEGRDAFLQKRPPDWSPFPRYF
Polio RdRp inh = poliovirus RNA polymerase inhibition | P03300 | poliovirus polymerase elongation, fluorescence polarization; stronger effect = lower value | % elongation, % (compound at 16.7 µg/mL) | 150,000 compounds, 0.66% hits; in the data active means % elongation below about 90%; further: some results filed as inactive read as strong as hits
Polio RdRp inh intensity = further read-out of Polio RdRp inh, marked with its call; % elongation; measured here: total intensity read-out; formula for this scale not given here;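 total fluorescence in place of polarization; lower means less elongation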
Numbers without * were called inactive; x = no result given; & = joins results of further samples.

A first look:
SMILES	Mtb MbtI inh	Mtb MenB inh	Polio RdRp inh	Polio RdRp inh intensity
Cc1ccccc1Nc1nc(Nc2ccccc2C)nc(Sc2nccn2C)n1	x	-11	104	101
COC(CNC(=O)c1ccc(-c2cc(Cl)ccc2Cl)o1)OC	80	-7	103	108
O=C(CC(NCc1ccccc1)C(=O)O)c1ccc(C2CCCCC2)cc1 (stereo unspecified)	x	-8	102	112
COc1cccc(NC(=O)CSc2nnc(N)s2)c1	0	7	101	101

All compounds of this part, previewed entries included:
SMILES	Mtb MbtI inh	Mtb MenB inh	Polio RdRp inh	Polio RdRp inh intensity
Cc1ccccc1Nc1nc(Nc2ccccc2C)nc(Sc2nccn2C)n1	x	-11	104	101
COC(CNC(=O)c1ccc(-c2cc(Cl)ccc2Cl)o1)OC	80	-7	103	108
O=C(CC(NCc1ccccc1)C(=O)O)c1ccc(C2CCCCC2)cc1 (stereo unspecified)	x	-8	102	112
COc1cccc(NC(=O)CSc2nnc(N)s2)c1	0	7	101	101
Cc1nc(S(=O)(=O)NCc2ccc(-c3cccs3)cc2)cn1C	6	0	102	104
CSc1nsc(SCc2ccc(F)cc2)n1	2	-25	103	101
O=C(Cc1cn2ccsc2n1)Nc1ccccc1OC(F)F	-21	-15	99	94
CC1CCN(C(=S)SCC(=O)n2c3c(c4ccccc42)CCCC3)CC1	7	-18	103	104
CCS(=O)c1ccccc1C(=O)NCc1ccc(C)cc1 (stereo unspecified)	100*	-28	100	104
CC(=O)Nc1ccc2c(c1)CCCN2C(=O)c1cccs1	4	-35	104	109
O=C(COC(=O)c1ccc(N2C(=O)c3ccccc3C2=O)cc1)Nc1ccc2[nH]c(=O)[nH]c2c1	3	-15	102	102
O=C(c1ccc(N2CCCc3ccccc32)s1)n1ccnc1	7	-290	103	104
c1ccc(CSC2=NCCCN2C2CCCCC2)cc1	-3	-12	104	108
CCOC(=O)c1c(NC(=O)COCc2cc(-c3ccc(F)cc3)on2)sc(C)c1C	26	-12	101	101
Cn1cnnc1-c1ccc(N)cc1	x	-12	100	105
O=C(CCCn1c(=O)c2sccc2n(CC(=O)NCc2ccco2)c1=O)NCc1ccco1	-5	8	99	102
COC(=O)c1ccc(CSc2nc3ccccc3c(=O)n2N)cc1	107	-21	100	103
Cn1ncc2c1ncn1nc(-c3ccncc3)nc21	-6	10	100	103
Cc1cccc(NC(=O)Nc2cccc(C(F)(F)F)c2)n1	4	-56	103	103
CCCCN(CC)c1ncnc2c1sc1nc(N3CCOCC3)c3c(c12)CC(C)(C)OC3	1	10	104	104

Individual results from the list:
Result for O=C(CC(NCc1ccccc1)C(=O)O)c1ccc(C2CCCCC2)cc1 (stereo unspecified) under Polio RdRp inh intensity: 112
Result for CC(=O)Nc1ccc2c(c1)CCCN2C(=O)c1cccs1 under Mtb MenB inh: -35

(next part)
SMILES	Mtb MbtI inh	Mtb MenB inh	Polio RdRp inh	Polio RdRp inh intensity
O=C(O)CNC1=NCCCCC1	-1	-23	102	109
O=S(=O)(NNc1ccnc2cc(Cl)ccc12)c1ccccc1F	-5	-33	102	106
O=C(CCc1nc2cccnc2n1Cc1cccs1)N1CCC2(CC1)OCCO2	5	-35	101	122
O=C1Nc2ccc(S(=O)(=O)N(CCO)CCO)c3cccc1c23	72	-19	101	99
Cn1c(N)c(C(=S)NC(=O)C2CC2)c(=O)n(C)c1=O	48	-14	101	94
COc1ccc(CC(=O)Nc2ccc3nc4n(c(=O)c3c2)CCCC4)cc1	10	-9	103	105
O=C(O)CC(NC(=O)C12CC3CC(CC(C3)C1)C2)c1ccc(Cl)cc1 (stereo unspecified)	x	-10	104	105
O=C(NN1C(=O)c2ccccc2C1=O)c1ccccc1	x	8	100	99
Nc1cccc(C(=O)Nc2cccc(C(F)(F)F)c2)c1	-211	x	102	107
CCOC(=O)N1CCN(Cn2nc(COc3ccc(C4CCCCC4)cc3)n(C)c2=S)CC1	9	-22	99	102
CCC(=O)c1c(O)n(C)c(=O)n(C)c1=O	-12	-21	101	102
CC1S/C(=N\N=C2CCC(C(C)(C)C)CC2)NC1=O (stereo unspecified)	-4	2	100	101
CC(Sc1nnc(-c2ccc(F)cc2)n1Cc1ccccc1)C(=O)NCc1ccco1 (stereo unspecified)	16	-11	100	101
CC1Cc2ccccc2N1C(=O)Cn1c(=O)oc2cc(S(=O)(=O)N3CCCC3)ccc21 (stereo unspecified)	-6	0	103	101
CCc1ccc(NC(=O)CSc2nc3ccccc3[nH]2)cc1	-1	x	98	102
CSc1nc2ccc(S(=O)(=O)N(C)C)cc2s1	x	-8	104	108
Cc1ccccc1CSc1nc2ccsc2c(=O)n1Cc1ccccc1	-9	-76	100	100
O=S(=O)(CCN1CCN(S(=O)(=O)c2ccccc2C(F)(F)F)CC1)c1ccc(Br)cc1	-7	-34	x	x
Cc1ccc(Nc2cc(=O)[nH]c(=O)[nH]2)cc1Cl	x	-20	101	108
NNC(=O)c1cc(COc2cc(Cl)cc(Cl)c2)on1	8	-52	106	104
CCOC(=O)CC1=C(C(=O)OCC)C2(C(=O)N(CC(=O)OC)c3ccccc32)C(C(=O)OCC)=C(N)O1 (stereo unspecified)	1	7	99	102
NCCCc1nc2cc3ccccc3cc2[nH]1	149	2	104	106
CCOC(=O)C1=C(NC2CCCCC2)C(=O)N(c2ccccc2)C1	x	-22	102	102
NC(=O)C1CCN(C(=O)N2c3ccccc3Sc3ccccc32)CC1	-15	-21	104	100
Cc1cc(C(=O)COC(=O)Cc2coc3cc(O)ccc23)c(C)n1C	6	-3	103	103
O=C(COc1ncnc2sccc12)c1ccc(Cl)s1	29	0	105	104
CC(CCc1ccccc1)NCC(O)c1ccc(O)c(C(N)=O)c1 (stereo unspecified)	-330&-144	-5&-6	99&101	102&102
CCc1ccc(NCc2cn(-c3ccccc3)nc2-c2cccs2)cc1	7	-35	100	105
COc1ccc(N=C(CCCN2C(=O)c3ccccc3C2=O)C2=C(O)CC(C)(C)CC2=O)cc1	-8	-27	102	99
N#Cc1cc(C#N)c(SCC(N)=O)nc1N	36	-54	104	108
CCCCCn1c(=O)[nH]c2cc(C(=O)NCCCC)ccc2c1=O	-11	-28	101	101
Cc1ccc(CN2C(=O)N/C(=C/c3ccc4c(c3)n(C)c(=O)n4C)C2=O)cc1	-12	11	100	100
O=C(COc1ccc(Cl)cc1)OC1CCOC1=O (stereo unspecified)	-14	-4	103	106
O=C(O)c1ccccc1S(=O)(=O)NCC(O)COC1CCCCC1 (stereo unspecified)	-7	-16	103	102
COc1cc2c(cc1OC)CN(CC(=O)NC(=O)NCc1ccccc1)CC2	-6	4	116	120
CCOC(=O)N1CCN(CCC(=O)c2ccc(Br)cc2)CC1	37	-6	98	92
COc1ccc(-c2csc(CC#N)n2)cc1OC	-8	-6	98	98
CSc1nc2ccc(NC(=O)c3c(C)nn(-c4ccccc4)c3Cl)cc2s1	3	5	101	111
Cn1c(=O)[nH]c(=O)c2c(C(F)(F)F)cc(-c3ccco3)nc21	33	8	104	106
Clc1ccc(C=Nc2ccc3c(c2)OCCOCCOCCO3)c(Cl)c1	-6	7	101	102
O=C(CSC1=NCCS1)Nc1ccc(Cl)cc1C(F)(F)F	15	x	100	104
CCOC(=O)N1CCC(NC(c2ccc(F)cc2)c2nnc(-c3ccccc3)o2)CC1 (stereo unspecified)	-16	-18	103	102
O=S(=O)(NC1CCCCC1)c1ccccc1	-12	x	103	105
O=C(CN(CCc1ccc2c(c1)OCCO2)CC(=O)NC1CC1)NC1CC1	-18	-42	108	116
N#Cc1c(F)cccc1N1CCC(C(N)=O)CC1	68	-10	105	102
CCN1CCN(Cc2cc(Cl)c3cccnc3c2O)CC1	8	-23	106	107
CC(C)CC(=O)Nc1c(C(=O)Nc2cccc(F)c2)oc2ccccc12	36	-8	100	103
CCc1cc2c(cc3c(=O)n(CC(=O)NCCN4CCOCC4)ncn32)s1	3	9	99	101
c1ccc(C2=NP(N3CCOCC3)(N3CCOCC3)=NC(N3CCOCC3)=N2)cc1	2	-23	99	96
O=C(O)C1CCN(C(=O)CSc2ncnc3ccccc23)CC1	-7	-8	102	105
CCN(CC)c1nc2n(c(=S)n1)CCS2	-2	30*	102	103
CC1(C)C(=O)NCCN1C(=O)CSc1nccc(-c2ccccc2)n1	3	11	102	102
CC(Sc1nnc(CN2CCCC2)n1Cc1ccccc1)C(=O)c1ccc(NS(C)(=O)=O)cc1 (stereo unspecified)	-6	-6	104	107
O=C(Nc1ccc(N2CCOCC2)c2nonc12)c1cccs1	1	-14	101	99
Cn1ccnc1C(=O)c1cccc(S(=O)(=O)N2CCCc3ccccc32)c1	-5	-25	107	102
Cc1ccc(Cl)cc1N1CCN(C(=O)Cn2ncc3c(=O)oc4ccccc4c32)CC1	-1	-6	102	104
C#CCNC(=O)c1cc(=O)[nH]c2ccccc12	-49	-6	104	106
COc1ccc(NC(=O)c2ccc3oc(=O)c(S(=O)(=O)c4ccccc4)cc3c2)cc1	-5	6	101	106
CC1(C)CC(=O)C(C2C3=C(CC(C)(C)CC3=O)Oc3ccc(Br)cc32)=C(O)C1 (stereo unspecified)	7	-8	102	104
CN(Cc1ccccc1)C(=O)C1CCCN(c2ncnc3onc(-c4ccc(F)cc4)c23)C1 (stereo unspecified)	-37	-33	102	103

Continued:
SMILES	Mtb MbtI inh	Mtb MenB inh	Polio RdRp inh	Polio RdRp inh intensity
CC(Oc1ccc(Cl)cc1)C(=O)NCc1ccco1 (stereo unspecified)	-2	28	104	100
O=C1CN(Cc2ccccc2)CC(=O)N1	8	-11	101	102
Fc1ccc(Nc2nc3nonc3nc2Nc2ccccc2F)cc1	-7	-13	101	103
NNC(=S)Nc1ccccc1	0	-63	98	94
CCC(=O)Nc1ccccc1C(=O)N1CCCCC1	-22	2	99	104
Nc1ccc(OCc2ccccc2)cc1	3	-4	101	102
Cc1ccc2nc(-c3ccccn3)cc(C(=O)NCc3cnn(C)c3)c2c1	-8	-8	100	103
COc1ccccc1NC(=O)C(F)(F)C(=O)Nc1ccccc1OC	x	-3	104	110
Cn1c(C2=C(O)CN(c3ccccc3)C2=N)nc2ccccc21	7	-10	105	103
CCOC(=O)N1CCC(N/C=C(\C#N)S(=O)(=O)c2cccnc2)CC1	-10	-1	109	116
OC1(c2cccc(F)c2)CC2CCC(C1)N2 (stereo unspecified)	-10	-13	105	99
CCc1c(CCN)csc1C	12	-31	103	101
Cc1nc2nc(NC(=O)C(c3ccccc3)c3ccccc3)[nH]n2c(=O)c1C	-2	17	101	100
Cc1csc2nc(CSc3ccc(S(=O)(=O)N4CCOCC4)cn3)cc(=O)n12	3	-27	103	115
CN(Cc1ccco1)C(=O)c1ccc(N2CCCS2(=O)=O)cc1	-8	-17	98	106
CC1Cc2ccccc2N1c1ccc2ccccc2n1 (stereo unspecified)	137	-11	104	97
c1ccc(-n2nnnc2NCC2CCCCC2)cc1	-1	-14	106	109
Cc1cc(C)c2c(n1)nn1c(C3CC3)cc(C(F)(F)F)nc21	1	-11	103	104
Cc1nn(Cc2ccccc2Cl)c(C)c1CN(C)Cc1cc(=O)n2c3c(sc2n1)CCCC3	53	-8	104	106
O=C(N/C=C/c1ccsc1)Nc1cc(C(F)(F)F)cc(C(F)(F)F)c1	2	-23	98	81
Cc1ccc2c(n1)sc1c(=O)n(CCc3ccccc3)nnc12	-16	14	100	102
CCN1C(=O)c2ccc(-c3nc4cc(Cl)ccc4c(=O)o3)cc2C1=O	111	3	101	103
O=C(NC1CCN(Cc2ccccc2)CC1)c1cncc(Br)c1	-6	-8	102	108
c1ccc(-c2cc(NC3CCCC3)n3cnnc3n2)cc1	47	19	99	101
CC1CCCCN1C(=O)CSc1nnc(-c2ccccc2)n1-c1ccccc1 (stereo unspecified)	-22	-6	106	104
O=C(CN1C(=O)c2ccccc2S1(=O)=O)c1ccc2c(c1)OCCCO2	-6	15	101	105
COc1ccc(C2C(C(=O)NC(C)C)c3ccccc3C(=O)N2Cc2ccc(F)cc2)cc1 (stereo unspecified)	-2	-16	103	107
COC(=O)C1=C(C)N(Cc2cccnc2)C(=O)/C1=C\c1ccc(OC)cc1OC	7	-139	99	102
CSc1ccc(C=C2C(=O)OC3(CCCCC3)OC2=O)cc1	-16	-14	103	107
Cc1ccc(CSc2n[nH]c(-c3ccccc3O)n2)cc1	-5	-21	101	104
COC(=O)CNC(=O)c1cc2cc(Cl)ccc2oc1=O	-18	-10	100	104
O=C1N/C(=N/N=C\c2ccco2)SC1Cc1cccc(C(F)(F)F)c1 (stereo unspecified)	27	6	100	103
CCCC1(CCC)NC(=O)N(Cn2nnc3ccccc3c2=O)C1=O	-22	6	104	103
CCOC(=O)CN=C1NC(=O)C(c2ccccc2)(c2ccccc2)N1	-1	6	100	104
CC(Sc1nc2cc(Cl)ccc2c(=O)n1C1CCCCC1)C(=O)NC(N)=O (stereo unspecified)	0	-8	x	x

Compound profiles (already shown).
c1ccc(-c2cc(NC3CCCC3)n3cnnc3n2)cc1 is listed as Mtb MbtI inh: 47; Mtb MenB inh: 19; Polio RdRp inh: 99; Polio RdRp inh intensity: 101
CCCC1(CCC)NC(=O)N(Cn2nnc3ccccc3c2=O)C1=O is listed as Mtb MbtI inh: -22; Mtb MenB inh: 6; Polio RdRp inh: 104; Polio RdRp inh intensity: 103

4 consecutive records from above, for reference:
SMILES	Mtb MbtI inh	Mtb MenB inh	Polio RdRp inh	Polio RdRp inh intensity
O=C(CN1C(=O)c2ccccc2S1(=O)=O)c1ccc2c(c1)OCCCO2	-6	15	101	105
COc1ccc(C2C(C(=O)NC(C)C)c3ccccc3C(=O)N2Cc2ccc(F)cc2)cc1 (stereo unspecified)	-2	-16	103	107
COC(=O)C1=C(C)N(Cc2cccnc2)C(=O)/C1=C\c1ccc(OC)cc1OC	7	-139	99	102
CSc1ccc(C=C2C(=O)OC3(CCCCC3)OC2=O)cc1	-16	-14	103	107
